High-throughput results from PubChem BioAssay.
Env fusion inh: blocks HIV Env-driven cell-cell fusion. HeLa-JRFL Env/CEM21 cell fusion, luciferase. inhibition, % at 12.3 µM. 360,000 compounds, 1.1% hits. AID 651610;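 active = mean replicate inhibition score of at least 50 and every replicate individually at or above 50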;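 also: 0% = plate neutral controls and 100% = maraviroc near 300 nM; one replicate is shown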
Rce1 inhib: blocks yeast Ras-converting enzyme; yeast membranes, quenched prenylated peptide cleavage fluorescence; AID 2563; 290,000 compounds, 0.27% hits; calls only;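 active = fall in fluorescence gain of 50% or more versus controls, with final raw signal at or below 3038400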;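 also: plate controls were neutral control wells for no effect and wells lacking membranes for full effect; tested at 10 µM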
Target sequence (Q03530 whole entry, looked up): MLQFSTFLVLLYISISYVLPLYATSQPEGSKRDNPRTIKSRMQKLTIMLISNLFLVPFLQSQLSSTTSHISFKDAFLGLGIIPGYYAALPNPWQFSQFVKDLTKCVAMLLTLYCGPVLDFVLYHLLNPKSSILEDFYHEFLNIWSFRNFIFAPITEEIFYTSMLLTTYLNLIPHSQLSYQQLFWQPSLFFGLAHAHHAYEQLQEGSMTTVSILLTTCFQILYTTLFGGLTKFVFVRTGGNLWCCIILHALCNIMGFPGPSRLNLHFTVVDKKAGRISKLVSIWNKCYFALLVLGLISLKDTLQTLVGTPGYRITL
MT1-MMP act inh: MT1-MMP (human) activation inhibition. HT1080 RFP-PRO-GFP cells, GFP/RFP ratio fluorescence, overnight; percent of plate control window, DMSO zero. GFP/RFP ratio change, % at 20 µM. 360,000 compounds, 0.061% hits;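 active = GFP/RFP ratio change of at least 30% with cell ATP level not reduced by more than half and red fluorescence within 50% of control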; also: strong numbers were not always called active
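Assay system: HT1080 RFP-PRO-GFP cells | Dosing: 20 µM single dose, 1% DMSO | Incubation: Cells overnight before dosing, compound overnight, 37 °C, 5% CO2 | Evaluation: GFP/RFP fluorescence ratio | Control set: DMSO-only wells and HT1080 RFP-L50D-GFP cell wells as references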
eIF4H inh: inhibitors of RNA binding by human eIF4H; inhibition, % at 35 µM; eIF4H fluorescence polarization binding assay; 290,000 compounds, 0.94% hits;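 active = 50% or more with normal probe brightness, or confirmed in later tests; about a fifth of its hits are not listed in these tables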;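 also: calls also rest on retests at 20 µM and on dose response follow-up; 0% = protein and probe with vehicle and 100% = probe without protein; strong numbers were not always called active; many hits fall short of the cut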
CSC inhib: blocks cancer stem cells; cancer stem cell-like cells viability, luminescence; inhibition, % at 7.5 µM; AID 2717; 300,000 compounds, 1.1% hits;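 active = mean at 75% or more and at least half the replicates too; tested in HMLE shEcad cells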;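 also: 0% = median of negative and 100% = median of positive control wells; the first replicate is given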
PABP FP inh: blocks human PABP binding to poly(A) RNA; AID 2014; P11940; inhibition, % at 35 µM; fluorescence polarization; 290,000 compounds, 1% hits;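 active = 50% or more with normal probe brightness, or confirmed in later tests; about a fifth of its hits are not listed in these tables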;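 also: calls also rest on retests at 20 µM and on dose response follow-up; controls were probe without protein and protein plus probe with vehicle; some compounds called inactive have numbers as strong as hits; many hits fall short of the cut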
Target sequence (P11940 whole entry, looked up): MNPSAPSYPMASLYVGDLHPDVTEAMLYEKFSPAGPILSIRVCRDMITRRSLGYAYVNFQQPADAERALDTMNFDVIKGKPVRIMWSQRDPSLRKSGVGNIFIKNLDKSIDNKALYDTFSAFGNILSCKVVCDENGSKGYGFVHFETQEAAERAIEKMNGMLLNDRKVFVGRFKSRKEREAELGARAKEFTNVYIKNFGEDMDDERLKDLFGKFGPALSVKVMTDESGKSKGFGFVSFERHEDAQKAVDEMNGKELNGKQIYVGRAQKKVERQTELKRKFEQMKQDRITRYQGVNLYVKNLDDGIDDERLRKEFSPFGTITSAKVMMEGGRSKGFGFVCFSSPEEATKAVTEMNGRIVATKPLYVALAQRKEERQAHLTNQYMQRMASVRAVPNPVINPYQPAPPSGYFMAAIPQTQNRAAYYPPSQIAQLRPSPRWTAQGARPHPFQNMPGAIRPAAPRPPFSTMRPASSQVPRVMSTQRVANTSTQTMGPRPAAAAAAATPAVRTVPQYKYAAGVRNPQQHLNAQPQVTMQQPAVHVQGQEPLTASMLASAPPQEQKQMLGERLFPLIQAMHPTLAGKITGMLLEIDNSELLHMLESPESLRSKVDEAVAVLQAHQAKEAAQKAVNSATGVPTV
Yeast UUG start: modulators of start codon recognition fidelity in yeast; 350,000 compounds, 0.13% hits; S. cerevisiae UUG-firefly luciferase reporter, luminescence/redox ratio; activity score, % at 18.7 µM;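 active = replicate mean at a twofold rise or more, about +100% in these data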;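 also: firefly luciferase made from a UUG start codon reports start codon fidelity; reporter light over untreated wells divided by growth signal over untreated wells; some hits fall short of that in this replicate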
MT1-MMP act inh RFP: further read-out of MT1-MMP act inh, marked with its call; RFP signal change, %; measured here: RFP expression control read;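 0 = vehicle wells; hits needed this value within 50% of zero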
Active calls of the source: *; & = joins results of further samples; [ ] = remark or other dose.

Screening COC(=O)/C(=C/c1ccco1)NC(=O)c1ccccc1 returned Env fusion inh 2, Rce1 inhib inactive, MT1-MMP act inh 3, eIF4H inh 17, CSC inhib 1, PABP FP inh -7 and MT1-MMP act inh RFP 9.
Screening O=C(Nc1cccc(Cl)c1)Nc1nc(-c2ccccc2)cs1 returned Env fusion inh -9, Rce1 inhib inactive, MT1-MMP act inh 4, eIF4H inh -1, CSC inhib 0, PABP FP inh 13 and MT1-MMP act inh RFP -6.
`Cc1ccc(OCCCCn2c(CO)nc3ccccc32)cc1` gave Env fusion inh -6, Rce1 inhib inactive, MT1-MMP act inh 5, eIF4H inh -3, CSC inhib -5, PABP FP inh -8, Yeast UUG start 130* and MT1-MMP act inh RFP -4.
CCOC(=O)C(=O)Nc1nc(-c2ccccc2)c(CC)s1 was read as Env fusion inh 8, Rce1 inhib inactive, MT1-MMP act inh -8, eIF4H inh 3, CSC inhib -7, PABP FP inh 6, Yeast UUG start -7 and MT1-MMP act inh RFP -4.
For CCN(CC)C(=O)[C@H]1C[C@H](CC(=O)NCCCOC)C(=O)N2CCc3c([nH]c4cc(CCC(=O)N(C)C)ccc34)[C@]12C the results were Env fusion inh -1, MT1-MMP act inh 3, Yeast UUG start 15 and MT1-MMP act inh RFP 9.
`Cc1ccc(C(=O)NCC2CCCN2S(=O)(=O)c2cccs2)cc1C` (stereo not given) gave Rce1 inhib inactive, MT1-MMP act inh -2, CSC inhib -17, Yeast UUG start -18 and MT1-MMP act inh RFP -1.
Screening Cc1ccccc1-n1nc(-c2cccnc2)cc1C(=O)N/N=C/c1ccncc1 returned Env fusion inh 27, Rce1 inhib inactive, MT1-MMP act inh -1, eIF4H inh 0, CSC inhib 2, PABP FP inh -1 and MT1-MMP act inh RFP 2.
Cc1ccc(Cn2c(CN3CCOCC3)nc3c2c(=O)[nH]c(=O)n3C)cc1 was read as Env fusion inh -15, Rce1 inhib inactive, MT1-MMP act inh -4, eIF4H inh -4, CSC inhib 0, PABP FP inh 8, Yeast UUG start -10 and MT1-MMP act inh RFP 1.
For CCOC(=O)c1cnc(Nc2nc3ccccc3o2)nc1C the results were Env fusion inh 47, Rce1 inhib inactive, MT1-MMP act inh 6, eIF4H inh -6, CSC inhib 43, PABP FP inh -5, Yeast UUG start -44 and MT1-MMP act inh RFP 0.
For CCOC(=O)CSc1nnc(NC(=O)CN2CCN(C=O)CC2)s1 the results were Env fusion inh 3, Rce1 inhib inactive, MT1-MMP act inh 0, eIF4H inh -8, CSC inhib 0, PABP FP inh 5, Yeast UUG start -1 and MT1-MMP act inh RFP 2.
For Cc1ccc2sc(NNC(=O)C3=COCCO3)nc2c1C the results were Env fusion inh 0, Rce1 inhib inactive, MT1-MMP act inh 6, eIF4H inh 10, CSC inhib -8, PABP FP inh 0 and MT1-MMP act inh RFP 9.
Screening COc1cccc(OCCCCN2CCCCC2)c1 returned Env fusion inh -58, Rce1 inhib inactive, MT1-MMP act inh -1, eIF4H inh 1, CSC inhib -1, PABP FP inh 2, Yeast UUG start -23 and MT1-MMP act inh RFP 1.
For CCn1c(SCCC#N)nnc1-c1ccncc1 the results were Rce1 inhib inactive, MT1-MMP act inh -2, eIF4H inh -7, CSC inhib -10, PABP FP inh -6 and MT1-MMP act inh RFP 2.
Screening CCOC(=O)N1CCN(Cc2nc3cc(NC(C)=O)ccc3n2C)CC1 returned Env fusion inh 10, Rce1 inhib inactive, MT1-MMP act inh -2, eIF4H inh -11, CSC inhib -14, PABP FP inh 5, Yeast UUG start -17 and MT1-MMP act inh RFP 4.
For Cc1nn(-c2ccc(Cl)cn2)c2c1C(=O)CC(C)(C)C2Br (stereo not given) the results were Env fusion inh -41, MT1-MMP act inh -8, Yeast UUG start -15 and MT1-MMP act inh RFP -4.
`Cc1cccc(C)c1NC(=O)CNC(=O)C1CC(=O)N(Cc2ccccc2)C1` (stereo not given) gave Rce1 inhib inactive, MT1-MMP act inh 0, CSC inhib 7, Yeast UUG start -7 and MT1-MMP act inh RFP 1.
`CCOC(=O)c1nnc(-c2ccccc2)nc1Oc1ccccc1Cl` gave Rce1 inhib inactive, MT1-MMP act inh -3, eIF4H inh -15, CSC inhib 28, PABP FP inh -11 and MT1-MMP act inh RFP -2.
Screening CCN(Cc1ccccc1)C(=O)COC(=O)c1c(C)nsc1NC returned Env fusion inh 6, MT1-MMP act inh 0, CSC inhib -12, Yeast UUG start -8 and MT1-MMP act inh RFP -16.
Screening CN(CCC1CCOCC1)C(=O)CC1C(=O)NCCN1Cc1c(F)cccc1Cl (stereo not given) returned Env fusion inh 6, Rce1 inhib inactive, MT1-MMP act inh -6, eIF4H inh 6, CSC inhib -6, PABP FP inh -7, Yeast UUG start -16 and MT1-MMP act inh RFP -2.
Screening CC(C)Nc1nc(NC(C)C)nc(Oc2ccc(=O)n(C)n2)n1 returned Env fusion inh -4, Rce1 inhib inactive, MT1-MMP act inh 6, eIF4H inh -5, CSC inhib 1, PABP FP inh 0 and MT1-MMP act inh RFP 9.
For CC1CCN(C(=O)c2[nH]cnc2C(=O)N[C@H](C)c2ccccc2)CC1 the results were Env fusion inh 23, MT1-MMP act inh 3, CSC inhib -6, Yeast UUG start -16 and MT1-MMP act inh RFP 6.
For CCCc1cc(=O)oc2cc(C)cc(OCC(=O)N3CCC(C(N)=O)CC3)c12 the results were Rce1 inhib inactive, MT1-MMP act inh 6, eIF4H inh -15, CSC inhib -9, PABP FP inh -4, Yeast UUG start -22 and MT1-MMP act inh RFP 10.
Screening CCOc1ccccc1NC(=O)Nc1ccsc1C(=O)OC returned Env fusion inh -12, Rce1 inhib inactive, MT1-MMP act inh -5, eIF4H inh -9, CSC inhib -11, PABP FP inh 1, Yeast UUG start -14 and MT1-MMP act inh RFP -6.
Screening O=C(Nc1nncs1)c1cc(-c2ccncc2)nc2ccc(Cl)cc12 returned Env fusion inh 11, Rce1 inhib inactive, MT1-MMP act inh -1, eIF4H inh -8, CSC inhib 0, PABP FP inh -6, Yeast UUG start -25 and MT1-MMP act inh RFP -1.

Gathered by group: the entries above with two or more sulfur atoms.
`Cc1ccc(C(=O)NCC2CCCN2S(=O)(=O)c2cccs2)cc1C` (stereo not given) gave Rce1 inhib inactive, MT1-MMP act inh -2, CSC inhib -17, Yeast UUG start -18 and MT1-MMP act inh RFP -1.
For CCOC(=O)CSc1nnc(NC(=O)CN2CCN(C=O)CC2)s1 the results were Env fusion inh 3, Rce1 inhib inactive, MT1-MMP act inh 0, eIF4H inh -8, CSC inhib 0, PABP FP inh 5, Yeast UUG start -1 and MT1-MMP act inh RFP 2.

(listing goes on)
CN(CC(=O)NCc1ccc(F)cc1)S(=O)(=O)c1ccc2c(c1)c(=O)n(C)c(=O)n2C was read as Env fusion inh -1, Rce1 inhib inactive, MT1-MMP act inh -2, eIF4H inh -6, CSC inhib -2, PABP FP inh -8, Yeast UUG start -4 and MT1-MMP act inh RFP 1.
Screening CCCOc1cc(CC(=O)NCc2ccco2)ccc1OC returned Env fusion inh -58, Rce1 inhib inactive, MT1-MMP act inh -2, eIF4H inh -6, CSC inhib 22, PABP FP inh 1, Yeast UUG start 8 and MT1-MMP act inh RFP 2.
COc1cc2ccccc2cc1C(=O)NC(=S)Nc1ccc(C(=O)O)cc1 was read as Env fusion inh 8, Rce1 inhib inactive, MT1-MMP act inh 5, eIF4H inh 37, CSC inhib 0, PABP FP inh 0, Yeast UUG start -17 and MT1-MMP act inh RFP 6.
COc1ccccc1N(CCC#N)C(=O)CSc1nc(-c2ccccc2)cn1N was read as Env fusion inh -1, Rce1 inhib inactive, MT1-MMP act inh -1, eIF4H inh -8, CSC inhib -9, PABP FP inh 12 and MT1-MMP act inh RFP -1.
For CCOC(=O)c1c(NC(=O)c2c(Br)cnn2C)c(C#N)nn1-c1ccccc1 the results were MT1-MMP act inh -10, eIF4H inh 0, CSC inhib 14, PABP FP inh 8, Yeast UUG start -12 and MT1-MMP act inh RFP -20.
`O=C(COC(=O)Cc1ccc(Br)cc1)NCc1ccccc1` gave Env fusion inh 0, MT1-MMP act inh -1, Yeast UUG start -14 and MT1-MMP act inh RFP 2.
`COc1ccc(NC(=O)Nc2cccc3c2O[C@@H](CN(C)S(=O)(=O)c2cn(C)cn2)[C@@H](C)CN([C@H](C)CO)C3=O)cc1` gave Env fusion inh 6[16.7 µM], MT1-MMP act inh 2, CSC inhib -9, Yeast UUG start -3&-8 and MT1-MMP act inh RFP 2.
COC(=O)c1cccc(-n2c(C)cc(/C=C3\SC(=O)NC3=O)c2C)c1 was read as Env fusion inh 5, MT1-MMP act inh 2, Yeast UUG start -6 and MT1-MMP act inh RFP -9.
For C=CCNc1nc(Cl)nc(Nc2ccc([N+](=O)[O-])cc2)n1 the results were Env fusion inh -9, Rce1 inhib inactive, MT1-MMP act inh 2, eIF4H inh -8, CSC inhib -7, PABP FP inh 2 and MT1-MMP act inh RFP 2.
`Cc1ccccc1OCC(O)CNC1CCC(NCC(O)COc2ccccc2C)CC1` (stereo not given) gave Env fusion inh -47, Rce1 inhib inactive, MT1-MMP act inh -13, eIF4H inh 1, CSC inhib 109*, PABP FP inh 3, Yeast UUG start 8 and MT1-MMP act inh RFP -14.
Screening CCOc1ccc2oc(C(=O)OCC(=O)NC(=O)NC3CCCC3)c(C)c2c1 returned Env fusion inh -12, Rce1 inhib inactive, MT1-MMP act inh 1, eIF4H inh -3, CSC inhib 3, PABP FP inh -6, Yeast UUG start -11 and MT1-MMP act inh RFP 4.
O=C(O)COc1ccccc1O was read as Env fusion inh -20, MT1-MMP act inh -1, eIF4H inh -2, CSC inhib -1, PABP FP inh 19, Yeast UUG start -17 and MT1-MMP act inh RFP 5.
Screening COC(=O)c1ccc(COC(=O)c2[nH]c(C)c(C(C)=O)c2C)o1 returned Rce1 inhib inactive, MT1-MMP act inh -2, eIF4H inh -1, CSC inhib -6, PABP FP inh -6, Yeast UUG start 9 and MT1-MMP act inh RFP -28.
For CC(C)NC(=S)N(CCc1ccncc1)C(C)C the results were Env fusion inh 3, Rce1 inhib inactive, MT1-MMP act inh 2, eIF4H inh -9, CSC inhib 1, PABP FP inh -9, Yeast UUG start -28 and MT1-MMP act inh RFP 2.
Screening CCCCC1C2=C(CC(C)(C)CC2=O)OC2=C1C(=O)CC(C)(C)C2 returned Env fusion inh 27, Rce1 inhib inactive, MT1-MMP act inh -3, eIF4H inh -6, CSC inhib -6, PABP FP inh 12 and MT1-MMP act inh RFP -5.
For CCOCC(=O)Nc1cc(C(=O)Nc2cc(C)cc(C)c2)ccc1Cl the results were Rce1 inhib inactive, eIF4H inh -10, CSC inhib 3 and PABP FP inh -8.
Screening Cn1c(=O)[nH]c(N)c(Br)c1=O returned Env fusion inh 5, MT1-MMP act inh -2, Yeast UUG start 1 and MT1-MMP act inh RFP 4.
For Cn1c(=O)c2sccc2n2c(CCCC(=O)NCc3ccc4c(c3)OCO4)nnc12 the results were Env fusion inh 9, MT1-MMP act inh 2, eIF4H inh -8, PABP FP inh 3, Yeast UUG start -15 and MT1-MMP act inh RFP -1.
Screening CCCCC(C(=O)NC(C)(C)C)N(Cc1ccco1)C(=O)c1snc(C(N)=O)c1N (stereo not given) returned Rce1 inhib inactive, MT1-MMP act inh 7, eIF4H inh -7, CSC inhib 1, PABP FP inh 0, Yeast UUG start -16 and MT1-MMP act inh RFP 5.
Screening CCS(=O)(=O)N(CC(=O)Nc1cccc2ccccc12)c1ccc(OC)cc1 returned Env fusion inh -5, MT1-MMP act inh -4, CSC inhib -14, Yeast UUG start -2 and MT1-MMP act inh RFP -2.
For Cc1[nH]c2ccccc2c1CCN(Cc1cccs1)C(=S)NC(C)(C)C the results were Env fusion inh -9, Rce1 inhib inactive, MT1-MMP act inh 1, eIF4H inh -1, CSC inhib 5, PABP FP inh 10, Yeast UUG start -17 and MT1-MMP act inh RFP 3.
`COc1ccc(Br)cc1CNC(=O)C1CCCN(c2nc3ccccc3o2)C1` (stereo not given) gave Env fusion inh 4, Rce1 inhib inactive, MT1-MMP act inh 0, eIF4H inh -4, CSC inhib -2, PABP FP inh -2, Yeast UUG start 0 and MT1-MMP act inh RFP -3.
